# DUX4 inh = DUX4-mediated transcription inhibition. AID 1224904. 37,000 compounds, 0.8% hits. 293T-iDUX4 ZSCAN4-Gaussia luciferase reporter, 24 h; active compounds read low. activity change, negative = inhibition, % (no concentration beside the values);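 active = -10% or lower and over 25 points stronger than a control reporter; inconclusive = -10% or lower with a smaller gap; inactive = above -10%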;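 note: 0% = median of neutral control wells and -100% = median of positive control wells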
# DUX4 inh difference = also measured in DUX4 inh; calls as there; Gaussia minus Italica difference, %; measured here: selective DUX4 reporter inhibition;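 worked out from the two reporters; negative = selective loss of the DUX4 reporter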
# DUX4 inh control = further read-out of DUX4 inh, marked with its call; activity change, negative = inhibition, %; measured here: Italica tet-on control reporter;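 0 = neutral control and -100 = positive control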
# Starred values were filed as active, the others as inactive; ? = inconclusive; · = not tested or not shown. These rows are one share of the data; the hit share may differ from the screen's.
SMILES,DUX4 inh,DUX4 inh difference,DUX4 inh control
O=C(NC[C@H]1N[C@H](CO)[C@H]1c1ccccc1)C1CC1,-5.7,-5.9,0.2
COc1ccc2c3c([nH]c2c1)[C@@H](CO)N(C(=O)NC(C)C)CC31CCN(Cc2ccccc2)CC1,?,·,·
O=C(C[C@H]1CC[C@H]2[C@@H](COC[C@@H](O)CN2C(=O)Nc2ccccc2)O1)NCCc1ccncc1,6.1,-6.9,12.9
CN1c2ccc(-c3cccc(C#N)c3)cc2[C@@H]2[C@@H](CCN2C(=O)Cc2ccccn2)[C@@H]1CO,2.2,-1.5,3.7
CS(=O)(=O)N1CCCCN2[C@@H](CO)[C@@H](c3ccc(-c4cccc(C#N)c4)cc3)[C@@H]2C1,-0.1,4.0,-4.1
C[C@@H]1CN([C@@H](C)CO)C(=O)CCCn2cc(nn2)CO[C@H]1CN(C)C(=O)Nc1cccc(Oc2ccccn2)c1,2.0,-2.9,4.9
C[C@H](CO)N1C[C@H](C)[C@@H](CN(C)S(=O)(=O)c2cn(C)cn2)Oc2ccc(N(C)C)cc2C1=O,0.7,3.8,-3.1
Cn1cnc(S(=O)(=O)N2C[C@H](O)COC[C@@H]3O[C@H](CC(=O)NCc4cccc(F)c4)CC[C@H]32)c1,10.3,9.4,0.9
CO[C@@H]1CN(C)C(=O)c2ccc(NC(C)=O)cc2OC[C@@H](C)N(Cc2cccnc2)C[C@H]1C,7.3,10.2,-2.9
COCC(=O)Nc1ccc2c(c1)OC[C@H](C)N(C(=O)CC1CC1)C[C@@H](C)[C@H](OC)CN(C)C2=O,1.7,3.7,-1.9
N#C[C@H]1[C@H](c2ccc(-c3cncnc3)cc2)[C@H](CO)N1C(=O)CN1CCOCC1,-1.1,-0.6,-0.6
C[C@H](NC(=O)C[C@@H]1C[C@H]2c3cc(NS(=O)(=O)c4ccc(F)cc4)ccc3O[C@H]2[C@H](CO)O1)c1ccccc1,?,·,·
C[C@H](CO)N1C[C@H](C)[C@H](CN(C)S(=O)(=O)c2ccc(Cl)cc2)Oc2c(NC(=O)Nc3ccc(F)cc3)cccc2C1=O,-1.2,-3.2,2.0
O=C(C1CCCCC1)N1C[C@H]2[C@@H](c3ccccc31)[C@@H](CO)N2CC1CCOCC1,-1.6,-5.4,3.9
C[C@@H]1CCCCO[C@@H](CN(C)Cc2ccc(Cl)c(Cl)c2)[C@H](C)CN([C@H](C)CO)C(=O)c2cc(NS(=O)(=O)c3cccs3)ccc2O1,0.0,3.7,-3.7
CCCN(C)C[C@H]1Oc2cc(/C=C/c3ccccc3)ccc2S(=O)(=O)N([C@H](C)CO)C[C@H]1C,-2.7,-6.0,3.4
N#C[C@@H]1[C@@H](c2ccc(C3=CCCC3)cc2)[C@@H](CO)N1S(=O)(=O)c1ccccc1,-0.8,-2.2,1.4
C[C@@H]1CCCCO[C@@H](CN(C)C(=O)Nc2ccc3c(c2)OCO3)[C@H](C)CN([C@H](C)CO)C(=O)c2cc(NS(=O)(=O)c3ccc(F)cc3)ccc2O1,1.4,1.9,-0.5
CS(=O)(=O)Nc1ccc2c(c1)[C@H]1C[C@H](CC(=O)NCC(F)(F)F)O[C@@H](CO)[C@H]1O2,5.6,2.3,3.3
O=C(N[C@H]1CC[C@H](CCn2cc(-c3ccccc3F)nn2)O[C@@H]1CO)c1ccc2c(c1)OCO2,-3.8,0.2,-4.0
CN1[C@H](C(=O)NC2Cc3ccccc3C2)[C@@H](CO)[C@@H]2Cn3c(ccc(-c4cncnc4)c3=O)[C@@H]21,12.0,16.0,-4.0
CCC(=O)N1CCCCN2[C@H](CO)[C@@H](c3ccc(-c4cccc(C(=O)N(C)C)c4)cc3)[C@H]2C1,0.5,8.0,-7.5
CC=Cc1ccc2n(c1=O)C[C@@H]1[C@@H](CO)[C@H](C(=O)NCCc3ccccc3)N(C(C)=O)[C@H]21 (mixture of isomers),3.6,0.7,2.9
COc1ccccc1NC(=O)N1C[C@H]2[C@@H](c3ccccc31)[C@@H](CO)N2C(=O)c1ccccc1,1.7,3.0,-1.2
CC(C)CC#Cc1ccc([C@H]2[C@H](CO)N3CCCCN(S(=O)(=O)c4ccc(F)cc4)C[C@@H]23)cc1,?,·,·
Cc1noc(C)c1NC(=O)Nc1cccc2c1O[C@H](CN(C)C(=O)Nc1ccc3c(c1)OCO3)[C@H](C)CN([C@@H](C)CO)C2=O,-1.2,0.6,-1.8
CN1CCCCN2[C@@H](CO)[C@@H](c3ccc(C#Cc4ccccc4F)cc3)[C@@H]2C1,?,·,·
C[C@H]1CN([C@@H](C)CO)C(=O)c2c(c3ccccc3n2C)-c2ccccc2CO[C@H]1CN(C)Cc1cccc(C(F)(F)F)c1,?,·,·
COCC(=O)N1CC[C@@H]2[C@H]1c1cc(C#Cc3ccccc3)ccc1N[C@@H]2CO,-2.4,-5.8,3.5
COc1ccc(C#Cc2ccc([C@H]3[C@H]4CN(C(=O)Nc5ccccc5F)CC(=O)N4[C@H]3CO)cc2)cc1,-4.9,-2.7,-2.1
C[C@@H]1CN([C@@H](C)CO)C(=O)Cc2cc(NC(=O)CCN3CCOCC3)ccc2O[C@H]1CN(C)C(=O)NC1CCCCC1,-0.4,-1.4,1.0
OC[C@H]1Nc2ccc(-c3cccc(F)c3)cc2[C@@H]2[C@H]1CCN2Cc1ccncc1,6.8,-4.3,11.1
O=C(C[C@H]1C[C@H]2c3cc(NS(=O)(=O)c4ccc(F)cc4)ccc3O[C@H]2[C@@H](CO)O1)N1CCc2ccccc2C1,?,·,·
O=C(C[C@@H]1CC[C@H]2[C@@H](COC[C@@H](O)CN2S(=O)(=O)c2cccc(Cl)c2)O1)N1CCOCC1,2.8,5.1,-2.3
CCCC#Cc1ccc([C@H]2[C@@H](CO)N3C(=O)CN(S(=O)(=O)Cc4ccccc4)C[C@H]23)cc1,?,·,·
O=C(CC1CC1)N1CC(=O)N2[C@H](C1)[C@@H](c1ccc(-c3ccccc3)cc1)[C@@H]2CO,11.0,14.6,-3.6
CCN1[C@H](C(=O)NCCOC)[C@@H](CO)[C@@H]2Cn3c(ccc(-c4ccc(C(=O)N(C)C)cc4)c3=O)[C@@H]21,2.0,-0.9,2.9
CN1C(=O)c2cc(NC(=O)c3ccc(C(F)(F)F)cc3)ccc2OC[C@H]2O[C@H](CC(=O)NC3Cc4ccccc4C3)CC[C@@H]21,4.9,0.2,4.7
O=C(O)[C@@H]1[C@@H](CO)[C@@H]2Cn3c(ccc(/C=C/c4ccccc4)c3=O)[C@@H]2N1C(=O)C1CCCC1,?,·,·
Cn1cnc(CCNC(=O)C[C@H]2CC[C@@H]3[C@H](COC[C@@H](O)CN3C(=O)Nc3ccc(C(F)(F)F)cc3)O2)c1,1.1,2.0,-0.9
N#C[C@H]1[C@@H](c2ccc(-c3cccnc3)cc2)[C@@H](CO)N1C(=O)C1CCOCC1,2.5,-1.4,4.0
COC(=O)C[C@@H]1C[C@@H]2c3cc(NC(=O)CC4CC4)ccc3O[C@@H]2[C@H](CO)O1,5.5,3.4,2.1
CN1c2ccc(C#Cc3cccnc3)cc2[C@H]2[C@H](CCN2S(=O)(=O)c2cccc(F)c2)[C@@H]1CO,?,·,·
O=C1CN(S(=O)(=O)c2ccccc2)C[C@@H]2[C@@H](c3ccc(Br)cc3)[C@@H](CO)N12,1.4,-7.2,8.7
C[C@H](CO)N1C[C@H](C)[C@H](CN(C)S(=O)(=O)c2cccc(C#N)c2)OCc2ccccc2-c2c(n(C)c3ccccc23)C1=O,-1.5,2.6,-4.1
CC(C)[C@H]1C(=O)N[C@@H](c2ccccc2)CC=CC[C@H](C)Oc2ccccc2C(=O)N1C (mixture of isomers),2.0,5.7,-3.7
O=C(C[C@H]1C[C@H]2c3cc(NC(=O)CC4CC4)ccc3O[C@H]2[C@H](CO)O1)NCCN1CCCCC1,10.7,0.1,10.7
COc1ccc(-c2ccc([C@@H]3[C@@H](CO)N(C(=O)NC(C)C)[C@H]3C#N)cc2)cc1,0.8,1.0,-0.2
COc1ccccc1S(=O)(=O)N(C)C[C@H]1OCc2cn(nn2)CCCC(=O)N([C@@H](C)CO)C[C@@H]1C,-3.5,1.5,-5.0
C[C@@H]1CN([C@@H](C)CO)S(=O)(=O)c2ccc(C#Cc3ccccc3F)cc2O[C@@H]1CN(C)C(=O)c1ccc2c(c1)OCO2,10.7,7.6,3.1
COCC(=O)N1CC2(C1)[C@H](c1ccccc1)[C@H](CO)N2C(=O)NC1CCCC1,-2.9,-7.6,4.7
CC(=O)N(C)C[C@@H]1[C@@H](c2ccc(-c3ccccc3)cc2)[C@H](CO)N1C(=O)C1CC1,5.4,2.5,2.9
COCC#Cc1ccc([C@H]2[C@H](CO)N3CCCCN(Cc4ccncc4)C[C@@H]23)cc1,7.0,9.8,-2.9
CC(=O)N1CCCCN2[C@H](CO)[C@@H](c3ccc(-c4ccc(F)cc4)cc3)[C@@H]2C1,6.4,1.2,5.3
COc1cccc(NC(=O)N(C)C[C@H]2OCc3cnnn3CCCC(=O)N([C@@H](C)CO)C[C@H]2C)c1,2.0,-0.2,2.2
C[C@H]1CCCCO[C@H](CN(C)Cc2ccccc2)[C@@H](C)CN([C@@H](C)CO)C(=O)c2cc(NC(=O)Nc3ccc(F)cc3)ccc2O1,5.9,3.2,2.7
O=C(C[C@H]1CC[C@@H]2[C@H](COC[C@H](O)CN2C(=O)c2ccc(F)cc2)O1)Nc1nccs1,17.6,22.8,-5.2
Cn1cnc(S(=O)(=O)N[C@@H]2CC[C@H](CC(=O)NCC3CCCCC3)O[C@@H]2CO)c1,3.9,0.7,3.2
CO[C@@H]1CN(C)C(=O)c2ccc(N)cc2OC[C@@H](C)NC[C@H]1C,1.2,-4.4,5.5
C[C@H]1CCCCO[C@@H](CN(C)Cc2ccc3c(c2)OCO3)[C@@H](C)CN([C@@H](C)CO)C(=O)c2cc(NC(=O)CCC(F)(F)F)ccc2O1,-0.9,-2.9,2.1

# Reprinted at random: 2 compounds from above, in no set order.
SMILES,DUX4 inh,DUX4 inh difference,DUX4 inh control
COc1ccc(-c2ccc([C@@H]3[C@@H](CO)N(C(=O)NC(C)C)[C@H]3C#N)cc2)cc1,0.8,1.0,-0.2
CO[C@@H]1CN(C)C(=O)c2ccc(N)cc2OC[C@@H](C)NC[C@H]1C,1.2,-4.4,5.5

# Next section:
SMILES,DUX4 inh,DUX4 inh difference,DUX4 inh control
COc1cccc(-c2ccc3c(c2)[C@H]2[C@H](CCN2C(=O)C2CCOCC2)[C@@H](CO)N3)c1,3.4,5.1,-1.7
C[C@H](CO)N1C[C@H](C)[C@@H](CN(C)C(=O)CN2CCOCC2)Oc2ncc(C3=CCCCC3)cc2C1=O,-1.4,3.2,-4.5
CS(=O)(=O)Nc1ccc2c(c1)[C@@H]1C[C@@H](CC(=O)NCc3cccc(F)c3)O[C@H](CO)[C@@H]1O2,2.4,-2.5,4.9
CS(=O)(=O)N1CC2(C1)[C@H](c1ccccc1)[C@@H](CO)N2Cc1ccccc1,8.7,4.7,4.0
O=C(NC1CCC1)[C@@H]1[C@@H](CO)[C@@H]2Cn3c(ccc(-c4ccccc4)c3=O)[C@@H]2N1CCc1ccccc1,?,·,·
CCS(=O)(=O)N[C@@H]1CC[C@H](CC(=O)Nc2ccc(-c3ccccc3)cc2)O[C@@H]1CO,6.5,6.3,0.2
Cc1ccc(S(=O)(=O)N2C[C@H](O)COC[C@@H]3O[C@H](CC(=O)N[C@H]4CCN(Cc5ccccc5)C4)CC[C@H]32)cc1,0.8,4.6,-3.7
Fc1cccc(-c2ccc(C3[C@@H]4CN(Cc5cccnc5)C[C@H]3N4)cc2)c1 (stereo partly specified),?,-10.5,5.3
COc1ccc2c3c([nH]c2c1)[C@@H](CO)N(C(=O)c1cccnc1)CC31CN(C(=O)NC(C)C)C1,9.3,4.6,4.7
CCCC(=O)N1CCC2(CC1)CN(S(=O)(=O)c1ccc(C)cc1)[C@H](CO)c1[nH]c3cc(OC)ccc3c12,?,·,·
C[C@H](CO)N1C[C@H](C)[C@H](CN(C)C(=O)c2ccc3c(c2)OCO3)Oc2ncc(C3=CCCC3)cc2C1=O,4.0,4.9,-0.9
COc1ccccc1-c1ccc([C@@H]2[C@H](CO)N3CCCCN(C(=O)NC4CCCC4)C[C@@H]23)cc1,13.6,12.5,1.1
O=C(c1ccccn1)N1CC2(C1)[C@@H](c1ccccc1)[C@H](CO)N2Cc1ccc(Cl)cc1,?,·,·
CO[C@@H]1CC[C@H]2CCOc3c(C#N)cccc3C(=O)N(C)[C@H](C)C(=O)N(C)C[C@@H]1O2,-1.7,0.5,-2.2
CC=Cc1ccc2n(c1=O)C[C@@H]1[C@@H](CO)[C@H](C(=O)NCc3ccc(F)cc3)[C@H]2N1CCC (mixture of isomers),0.5,-1.8,2.3
Cc1ccc(S(=O)(=O)N(C)C[C@H]2OCCCC[C@H](C)Oc3ccc(NC(=O)C4CCCCC4)cc3C(=O)N([C@H](C)CO)C[C@@H]2C)cc1,-0.2,-1.2,1.0
O=C(C[C@@H]1CC[C@@H]2NC[C@@H](O)COC[C@H]2O1)NCc1ccc(Oc2ccccc2)cc1,2.2,6.6,-4.4
CCCNC(=O)N1CC(=O)N2[C@H](CO)[C@@H](c3ccc(C#Cc4ccccc4)cc3)[C@@H]2C1,?,·,·

# Full records, looked up by structure. Order of values: DUX4 inh, DUX4 inh difference, DUX4 inh control
# COc1ccccc1-c1ccc([C@@H]2[C@H](CO)N3CCCCN(C(=O)NC4CCCC4)C[C@@H]23)cc1 in the list: 13.6, 12.5, 1.1
# O=C(c1ccccn1)N1CC2(C1)[C@@H](c1ccccc1)[C@H](CO)N2Cc1ccc(Cl)cc1 in the list: ?, ·, ·
# C[C@H](CO)N1C[C@H](C)[C@H](CN(C)C(=O)c2ccc3c(c2)OCO3)Oc2ncc(C3=CCCC3)cc2C1=O in the list: 4.0, 4.9, -0.9
# COc1ccc2c3c([nH]c2c1)[C@@H](CO)N(C(=O)c1cccnc1)CC31CN(C(=O)NC(C)C)C1 in the list: 9.3, 4.6, 4.7
